Compound activity deposited in PubChem by National Center for Advancing Translational Sciences (NCATS).
miR-21 FLuc: miR-21 reporter, rising signal | HeLa miR-21 FLuc reporter, luciferase, 48 h | Potency, µM (highest dose often 38.3 µM), without a hit: top-dose reporter change, positive = more light | 340,000 tested, under 10 active; active = well fitted rising curve with a large enough effect; inconclusive = small, poorly fitted or top-dose-only effect; inactive = no such curve, though single readings can be large or run the other way;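 also: % of control where 0% means no effect; miR-21 action dims this reporter so a rising signal means less miR-21 action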
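Luminescence from a firefly luciferase reporter carrying a miR-21 binding site downstream, stably expressed under a CMV promoter in HeLa cells that make miR-21 endogenously, reports miRNA modulation after 48 h compound exposure up to approximately 40uM final.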
* = called active by the depositor; ? = inconclusive; [ ] = another dose, or the depositor's remark. This is a subset, so the mix of outcomes need not match the whole.

A first look:
miR-21 FLuc | SMILES
19% | COc1ccc(-c2cc(C(=O)NCCc3ccc(OC)c(OC)c3)c3c(-c4ccc(F)cc4)[nH]nc3n2)cc1
1% | O=C(Nc1ccc(F)c(Cl)c1)C1CCN(c2ncccn2)CC1
6% | Cc1cc(F)ccc1NC(=O)C1CCC(CNS(=O)(=O)c2ccc3c(c2)CCCC(=O)N3)CC1 (stereo not given)
? | Cc1ccc(C)c(CN2C(=O)c3ccccc3S(=O)c3ccc(C(=O)N4CCN(c5ccccc5F)CC4)cc32)c1 (stereo not given)
-6% | NC(=O)CSc1ncc2c(n1)-c1ccccc1N(Cc1ccc(F)cc1)S2(=O)=O
8% | O=C(Cn1c(-c2cccs2)cc2cc(Cl)ccc21)N1CCCCC1
-3% | COc1cccc(C(=O)N(Cc2sccc2C)C2CCS(=O)(=O)C2)c1 (stereo not given)
7% | Cc1cccc(OCC(=O)N(Cc2cccc(Cl)c2)Cc2ccco2)c1C
-2% | COc1ccccc1CNC(=O)CSc1nc2nc(C)c(Cc3ccccc3Cl)c(C)n2n1
-53% | O=C(Nc1ccc(C(=O)N2CCN(c3ccc(F)cc3)CC2)cc1)c1nsc2ccccc12
3% | COc1ccc(OC)c(NC(=O)Cn2c(=O)n(Cc3nc(C)no3)c(=O)c3ccccc32)c1
-47% | Cc1ccc(-n2ncc3c(Nc4ccc5c(c4)OCCO5)ncnc32)cc1Cl
1% | COc1ccc2c(c1)CC(NC(=O)Nc1ccc(Br)c(C)c1)CO2 (stereo not given)
-1% | CCN(CC)CCCNC(=O)c1ccc2c(=O)n(CCc3ccccc3)c(=O)[nH]c2c1
? | CCc1ccc2c(c1)NC(c1cccnc1)=NC(c1ccc(C(C)(C)C)cc1)=N2
16% | Cc1ccccc1C(=O)NC1(C(F)(F)F)N=C(c2ccccc2)N(C2CCCCC2)C1=O (stereo not given)

This part in full (from the top)
miR-21 FLuc | SMILES
19% | COc1ccc(-c2cc(C(=O)NCCc3ccc(OC)c(OC)c3)c3c(-c4ccc(F)cc4)[nH]nc3n2)cc1
1% | O=C(Nc1ccc(F)c(Cl)c1)C1CCN(c2ncccn2)CC1
6% | Cc1cc(F)ccc1NC(=O)C1CCC(CNS(=O)(=O)c2ccc3c(c2)CCCC(=O)N3)CC1 (stereo not given)
? | Cc1ccc(C)c(CN2C(=O)c3ccccc3S(=O)c3ccc(C(=O)N4CCN(c5ccccc5F)CC4)cc32)c1 (stereo not given)
-6% | NC(=O)CSc1ncc2c(n1)-c1ccccc1N(Cc1ccc(F)cc1)S2(=O)=O
8% | O=C(Cn1c(-c2cccs2)cc2cc(Cl)ccc21)N1CCCCC1
-3% | COc1cccc(C(=O)N(Cc2sccc2C)C2CCS(=O)(=O)C2)c1 (stereo not given)
7% | Cc1cccc(OCC(=O)N(Cc2cccc(Cl)c2)Cc2ccco2)c1C
-2% | COc1ccccc1CNC(=O)CSc1nc2nc(C)c(Cc3ccccc3Cl)c(C)n2n1
-53% | O=C(Nc1ccc(C(=O)N2CCN(c3ccc(F)cc3)CC2)cc1)c1nsc2ccccc12
3% | COc1ccc(OC)c(NC(=O)Cn2c(=O)n(Cc3nc(C)no3)c(=O)c3ccccc32)c1
-47% | Cc1ccc(-n2ncc3c(Nc4ccc5c(c4)OCCO5)ncnc32)cc1Cl
1% | COc1ccc2c(c1)CC(NC(=O)Nc1ccc(Br)c(C)c1)CO2 (stereo not given)
-1% | CCN(CC)CCCNC(=O)c1ccc2c(=O)n(CCc3ccccc3)c(=O)[nH]c2c1
? | CCc1ccc2c(c1)NC(c1cccnc1)=NC(c1ccc(C(C)(C)C)cc1)=N2
16% | Cc1ccccc1C(=O)NC1(C(F)(F)F)N=C(c2ccccc2)N(C2CCCCC2)C1=O (stereo not given)
-2% | COCCCNC(=O)c1ccc(-n2c(-c3ccccc3)cc3c2CCC(C)C3)cc1 (stereo not given)
-1% | O=C1CC(c2ccc(F)cc2)c2c(c3ccccc3[nH]c2=O)O1 (stereo not given)
-2% | O=S(=O)(c1ccc(C2CCCCC2)cc1)N1CCN(c2cc(Cl)ccc2Cl)CC1
? | Cc1ccc(NS(=O)(=O)c2ccc3nc(-c4ccccc4)[nH]c3c2)cc1Cl
7% | Cn1nccc1C(=O)N1CCCC(N2CCN(c3cccc(C(F)(F)F)c3)CC2)C1 (stereo not given)
1% | COc1cc(C(=O)Nc2ccc(NC(=O)c3ccc(Br)cc3)cc2)cc(OC)c1OC
20% | Cc1nc2ccn(Cc3ccco3)c(=O)c2cc1C(=O)NCc1ccc(Cl)cc1
3% | Cn1ncc2nc(SCC(=O)Nc3ccc(Br)cc3F)n(Cc3ccccc3)c(=O)c21
11% | Cc1oc(-c2ccc(C(=O)NCc3ccccc3F)cc2)nc1COc1ccccc1
-6% | CC(C)Oc1cccc(C(=O)Nc2ccc3oc(-c4cccc(Cl)c4)nc3c2)c1
20% | CCOc1ccc(S(=O)(=O)Nc2ccc3c(c2)N(C(C)=O)CCC3)cc1
-1% | Cc1ccc(-c2c3c(=O)n(C)c(=O)n(C)c3c3n2-c2ccccc2NC3c2ccc(C)cc2O)cc1 (stereo not given)
4% | Cc1c(Cl)cccc1NC(=O)CN1C(=O)COc2ccc(S(=O)(=O)Nc3ccccc3)cc21
-7% | CCOC(=O)c1c(C)oc2nc(C)nc(NCc3cccc(OC)c3)c12
-4% | CCOc1ccc(Nc2cc(C)nc3nncn23)cc1
-9% | COc1ccc(CNC(=O)Cn2c(SCC(=O)Nc3ccc(C)c(C)c3)nc3ccccc32)cc1
-20% | O=C(NCc1ccc(F)cc1)c1cc2c(s1)-c1ccccc1SC2
-53% | Cc1ccc(CNC(=O)Cc2csc3ccccc23)cc1
-14% | Cc1cccc(OCC(=O)NCC2(N3CCN(C)CC3)CCCCC2)c1C
-23% | CCN(CC)CCSc1nnc2c3cc(F)ccc3n(CC)c2n1
0% | CC(=O)Nc1ccc(NC(=O)c2cc(-c3cccs3)on2)cc1
30% | CCOc1ccc(Nc2nc(C)c(NC(=O)c3ccc(C)cc3)c(Nc3ccc(OCC)cc3)n2)cc1
-3% | CCN(CC)c1nn2c(=O)c(C(=O)NCc3ccccc3Br)cnc2s1
8% | COc1ccc(CNC(=O)c2ccc(-c3nc(CS(=O)c4ccc(C)cc4)c(C)o3)cc2)cc1 (stereo not given)
2% | Cc1ccc(CCNC(=O)CCN2N=C(c3ccc(C)cc3)CCC2=O)cc1
-37% | COCC(C)Nc1ncnc2c1cnn2-c1cccc(Cl)c1 (stereo not given)
0% | COc1ccc(Br)cc1CNC(=O)c1ccc2c(c1)nc1n2CCCCC1
-19% | Cn1c(=O)oc2cc(S(=O)(=O)NC(Cc3ccccc3)C(=O)NCc3ccccc3Cl)ccc21 (stereo not given)
5% | COC(=O)c1ccc2oc(=O)c(S(=O)(=O)c3ccc(C)cc3)cc2c1
-2% | CCCN(CCC)CCNC(=O)c1cc2c(=O)oc3ccc(C)cc3c2s1
6% | CCOC(=O)c1cnn(-c2ccc(C(=O)Nc3ccc(OC(F)(F)F)cc3)cc2)c1N
21% | Cc1ccnc(NC(c2cc(C)ccc2O)c2ccc3cccnc3c2O)c1 (stereo not given)
-8% | COc1ccc(-c2cc(C(=O)OCC(=O)c3cccc(OC)c3)c3cccc(Cl)c3n2)cc1
0% | CCOC(=O)CN(Cc1ccccc1)C(=O)OC(C)(C)C
0% | O=C(NCCCN1CCN(c2ccc(F)cc2)CC1)Nc1ccc(Cl)cc1
-18% | CCOc1cc(Br)cc(C2NC(=O)c3c(sc4c3CCN(C)C4)N2)c1O (stereo not given)
-23% | Cc1cccc(CNC(=O)C2CCN(c3nn4cc(-c5ccc(F)cc5)nc4s3)CC2)c1
-4% | CCCCNc1ccc(-c2nc(-c3ccncc3)no2)cc1[N+](=O)[O-]
6% | CCOc1ccc(Nc2cc(C)nc3nc(Cc4ccc(Cl)cc4)nn23)cc1
7% | Cc1ccc(CNC(=O)c2ccc(CN3CC(=O)N4CCCCC4C3=O)cc2)cc1 (stereo not given)
-2% | CC(=O)Nc1cccc(NC(=O)Cn2cnc3c(oc4ccccc43)c2=O)c1
1% | Cc1ccc(NC(=O)c2oc3ccc(S(=O)(=O)N(C)C4CCCCC4)cc3c2C)cc1Cl
2% | CC1N=C2c3ccccc3N=C(SCC(=O)NCCc3ccc(Cl)cc3)N2C1=O (stereo not given)
-1% | O=C(CSc1nc2ccccc2nc1Cc1ccc(Cl)cc1)N1CCCc2ccccc21

Next structures:
miR-21 FLuc | SMILES
8% | COc1cc(NC(=O)CCn2c(-c3ccccc3)cc(C(C)=O)c2C)cc(OC)c1
-15% | Cc1cc(=O)n2nc(N3CCC(C(=O)Nc4ccc(Br)cc4F)CC3)sc2n1
19% | Cc1ccc(CNS(=O)(=O)c2ccc3c(c2)CC(C)N3C(=O)C2CCC2)cc1 (stereo not given)
-6% | COc1ccc(C(=O)c2cn(Cc3ccc(F)cc3)c3c(F)cc(F)cc3c2=O)cc1
-53% | Cc1cccc(-c2nnc(SCC(=O)Nc3ccc(C)c(C)c3)o2)c1
29% | O=C(c1ccc2c(c1)N(Cc1cccc(Cl)c1)C(=O)c1ccccc1S2=O)N1CCC(Cc2ccccc2)CC1 (stereo not given)
-33% | Nc1nnc2c(n1)[nH]c1ccccc12
-4% | N#Cc1ccccc1Cn1c(=O)n(Cc2ccc(C(=O)NC3CCN(Cc4ccccc4)CC3)cc2)c(=O)c2ccccc21
6% | CCN(CCCNC(=O)c1cc2c(=O)n(CC)c3ccccc3c2s1)c1cccc(C)c1
-7% | CCc1ccc(Oc2c(C(F)(F)F)oc3c(CN4CCN(C)CC4)c(O)ccc3c2=O)cc1
-48% | CC(=O)Nc1nonc1-c1nnc(SCc2ccc(C)cc2)n1C
-19% | CC(Nc1oc(-c2ccc(COc3ccc(Cl)cc3)o2)nc1C#N)c1ccccc1 (stereo not given)
8% | CCOC(=O)c1ccccc1NS(=O)(=O)c1ccc(N2CCCCS2(=O)=O)cc1
-7% | CCOc1ccc(CCNS(=O)(=O)c2cc(Br)cc3c2N(C(C)=O)CC3)cc1OCC
-2% | Cc1cccc(NC(=O)N2CCC(CN3CCCCCC3)CC2)c1C
-3% | CCOC(=O)c1[nH]c2ccccc2c1NC(=O)c1cc(OCC)c(OCC)c(OCC)c1
0% | Cc1ccc(-c2noc(C(C)NC(=O)c3ccco3)n2)cc1 (stereo not given)
-24% | COc1ccc(-n2nc(C(=O)N3CCCC(C)C3)c3c4ccccc4n(C)c3c2=O)cc1Cl (stereo not given)
-4% | CC(=O)Nc1c(C)nn(-c2ccccc2)c1N1CCC(C(=O)NCc2cccc(Cl)c2)CC1
0% | O=C(Cn1c(=O)n(Cc2ccccc2)c(=O)c2sc3ccccc3c21)Nc1ccc(F)cc1
-7% | O=C(CSC1=Nc2ccccc2N=C(c2ccc(F)cc2)C1)NCc1ccccc1
1% | Cc1cccc(C(=O)OCc2cc(=O)n3nc(-c4cccs4)sc3n2)c1
27% | CCOC(=O)c1sc2ccccc2c1S(=O)(=O)Nc1cccc(C(F)(F)F)c1
-3% | COc1ccc(C2(N3CCN(c4cc(C)ccc4C)CC3)C(=O)c3ccccc3C2=O)cc1
4% | Cc1ccc(C)c(NC(=O)CSc2nnc(C)n3c2cc2occc23)c1
-8% | Cc1ccc(C)c(NC(=O)Cn2ccn(-c3ccc(F)cc3)c(=O)c2=O)c1
-1% | COc1cc(C2CC(=O)N(c3ccc(C)c(Cl)c3)C3=C2C(=O)OC3)cc(OC)c1OC (stereo not given)
-4% | O=C(CSc1nc2ccccc2nc1Cc1ccc(Cl)cc1)N1CCc2ccccc21
-11% | COc1cccc(NC(=O)c2oc3ccccc3c2NC(=O)Cc2cccc(C)c2)c1
0% | COc1ccc(CCCc2nnc(SCC(=O)Nc3ccc(Cl)cc3)o2)cc1
? | Cc1ccc(C)c(NC(=O)c2nc(S(=O)(=O)Cc3ccc(F)cc3)ncc2Cl)c1
7% | CCCOc1ccc(NC(=O)CC2C(=O)N(c3ccc(F)cc3)C(=O)N2CC(C)C)cc1 (stereo not given)
15% | Cc1ccccc1Cn1nnc2c(=O)[nH]c(C3CCCN(C(=O)c4ccc(C(C)(C)C)cc4)C3)nc21 (stereo not given)
7% | CCCC12CN3CC(C)(CN(C1)C3c1ccc(OCc3ccccc3)cc1)C2=O (stereo not given)
-16% | COc1ccccc1OCc1nc(C#N)c(NCc2ccc(C)cc2)o1
-5% | COc1ccccc1NC(=O)c1sc2cccc(Cl)c2c1Cl
1% | O=C(CN1C(=O)COc2ccc(S(=O)(=O)N3CCCCCC3)cc21)N1CCN(c2ccccc2F)CC1
6% | COc1ccccc1CNC(=O)C(C)n1ccc2cc(S(=O)(=O)N3CCCC3)ccc21 (stereo not given)
10% | Cc1ccc(C)c(N2CCN(S(=O)(=O)c3cc(-c4cc(C)no4)ccc3C)CC2)c1
0%[7.66 µM] | CC1(C)CC(=O)C2=C(C1)O[C@@]1(CCCCN3C(=O)c4ccccc4C3=O)Cc3ccccc3C2O1
-5% | Cc1cccc(CNC(=O)c2ccc(NC(=O)N3CCSc4ccccc43)cc2)c1
-1% | Cc1cccc(-n2c(=O)c3c(c4cc(C)ccc4n3C)n(CC(=O)NCC3CCCO3)c2=O)c1 (stereo not given)
0% | CCCN(CCC)CCCNC(=O)C1CCCN(Cc2nc(-c3ccc(Cl)cc3)oc2C)C1 (stereo not given)
-2% | CC(=O)c1c(C)oc2c1cc(NS(=O)(=O)c1c(C)cc(C)cc1C)c1ccccc12
25% | CCOc1ccccc1N1CC(c2nc3ccccc3n2CCOc2ccccc2OC)CC1=O (stereo not given)
-9% | CCOC(=O)c1ccc(N2CCN(c3ccc(F)cc3)CC2)c(NC(=O)Nc2ccc(CC)cc2)c1
24% | Cc1ccc(C(C)(C)C)c(OCC(=O)NCCc2nc3ccccc3[nH]2)c1
-4% | CCOc1ccc(CNC(=O)c2cnc3sc(N(CC)CC)nn3c2=O)cc1
-1% | Cc1ccc2occ(-c3cc(-c4ccccc4)nc4c3COc3ccccc3-4)c(=O)c2c1
-5% | CCCS(=O)(=O)c1c(S(=O)(=O)CCC)c2cc(C(C)(C)C)ccn2c1C(=O)c1ccc(OC)c(OC)c1
